Screens as filed in PubChem.
CDC25B CDK2 inh = primary biochemical HTRF screen for blockers of M-phase inducer phosphatase 2 binding to CDK2/cyclin A | P30305+P24941 | HTRF CDC25B-CDK2/CyclinA binding, anti-His/anti-Flag; hits give high values | z-score (concentration not given with the values) | 0.72% of 94,000 active | AID 1259370, 2018;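 further: score is relative to mean and SD of negative controls; strong numbers were not always called active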
HIV TAR-Tat = TAR RNA-Tat peptide displacers, HIV-1, primary screen, biochemical, FRET, FAM/TAMRA-labeled Tat | HIV-1 TAR RNA, Tat peptide displacement FRET; hits give high values | z-score (test concentration not listed) | 0.6% of 100,000 active | AID 1259389, 2018;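 further: score is relative to mean and SD of negative controls; some compounds called inactive have numbers as strong as hits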
The depositor's hits bear a star.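 How the source made its calls: active means z-score from 3 up in half or more of its runs; inactive means the rest.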 Compounds as they come. Share with any hit: about 0.97%.

How did Cc1nc(-n2[nH]c(C)c(CCC(=O)Nc3ccc(F)cc3)c2=O)sc1C do in these assays?
CDC25B CDK2 inh: -1.6; HIV TAR-Tat: 1.7

How did CCn1c(=O)n(CC)c2cc(NC3=NS(=O)(=O)c4ccccc43)ccc21 do in these assays?
CDC25B CDK2 inh: -1.7; HIV TAR-Tat: 1.9

What do the screens show for `CCOC(=O)c1c(C)oc2c1C1=NC(C)(C)CN1C=N2`?
CDC25B CDK2 inh: -1.9; HIV TAR-Tat: 0.08

What do the screens show for `Cn1cc([N+](=O)[O-])c(C(=O)Nc2cccc(Br)c2)n1`?
CDC25B CDK2 inh: 0.16; HIV TAR-Tat: 2.4

Results for COc1ccccc1NC(=O)N1CCC2(CC1)CC(=O)c1ccccc1O2 ?
HIV TAR-Tat: 0.56

Results for Cc1ccc2c(c1)Cc1c([nH]c(-c3ccccn3)nc1=S)O2 ?
CDC25B CDK2 inh: 0.05; HIV TAR-Tat: -0.13

What do the screens show for `COC(=O)c1cc(=O)n2c(sc3ccccc32)c1C#N`?
CDC25B CDK2 inh: -2.7

How did O=C(CC1Nc2c3ccccc3nc(=S)n2C1=O)N1CCN(c2ccccc2F)CC1 (stereo not drawn) do in these assays?
CDC25B CDK2 inh: -1.2

Results for COCCNS(=O)(=O)c1ccc(OC)c(-c2nnc3c4ccccc4c(C)nn23)c1 ?
CDC25B CDK2 inh: -1.1; HIV TAR-Tat: 2.4

Results for Cc1ccc(-c2cn3cccc(C)c3n2)cc1NS(=O)(=O)c1ccccc1 ?
CDC25B CDK2 inh: -2.2; HIV TAR-Tat: 1.9

What do the screens show for `COc1ccc(N2COc3ccc(Cl)cc3C2)cc1`?
CDC25B CDK2 inh: -2.7

What do the screens show for `CC(C)N1C(=O)C2ON(c3ccc(Cl)cc3)C(c3ccc(N(C)C)cc3)C2C1=O` (stereo not drawn)?
CDC25B CDK2 inh: -0.28; HIV TAR-Tat: 0.43

How did COc1ccc(N2CCN(S(=O)(=O)c3ccc(-c4cc(C)no4)s3)CC2)cc1 do in these assays?
HIV TAR-Tat: 1.3

How did COC(=O)c1cnn2c(C(F)(F)F)cc(-c3ccccc3)nc12 do in these assays?
HIV TAR-Tat: 1.4

Results for CCCCN1C(=O)CN(C2CCCCCC2)C(=O)C1c1ccccc1F (stereo not drawn) ?
CDC25B CDK2 inh: 0.98

How did COc1ccc(-c2cc(C(=O)O)c3c(-c4ccc(F)cc4)[nH]nc3n2)cc1 do in these assays?
HIV TAR-Tat: 1.4

How did CCN(CC)CCCNc1ncnc2ccccc12 do in these assays?
CDC25B CDK2 inh: -3; HIV TAR-Tat: -0.42

Results for Cc1ccc(S(=O)(=O)N(CC(=O)O)CC(O)Cn2c3ccccc3c3ccccc32)cc1 (stereo not drawn) ?
CDC25B CDK2 inh: -0.14; HIV TAR-Tat: 2.3

What do the screens show for `Cc1ccc(CN2C(=O)C(O)(CC(=O)c3cccs3)c3cc(Cl)ccc32)cc1` (stereo not drawn)?
CDC25B CDK2 inh: -1; HIV TAR-Tat: 1.3

How did O=C(/C=N/Nc1ccccc1)Nc1ccccc1C(=O)O do in these assays?
CDC25B CDK2 inh: -1.7

What do the screens show for `CCOC(=O)c1c(NC(=O)C(C)SC2=NN3CCCC(=O)N=C3S2)sc2c1CCC2` (stereo not drawn)?
CDC25B CDK2 inh: -2.1

What do the screens show for `Cc1ccc(OC(=O)CSc2nc(-c3ccccc3)nc3cc(=O)[nH]n23)cc1`?
HIV TAR-Tat: 1.6

What do the screens show for `COC(=O)c1ccc(C2CC(=O)Nc3c2c(C)nn3-c2nncc(-c3ccc(C)cc3)n2)cc1` (stereo not drawn)?
CDC25B CDK2 inh: -2.2; HIV TAR-Tat: 3.1

How did C=CCNCc1ccc(Oc2nnnn2-c2ccccc2)c(OC)c1 do in these assays?
HIV TAR-Tat: 1.2

How did CCOC(=O)CSC1=NS(=O)(=O)c2cc(F)ccc2N1 do in these assays?
HIV TAR-Tat: 1.9

Results for O=C(Cn1ncc2c([nH]c3ccccc32)c1=O)Nc1ccc(F)cc1F ?
HIV TAR-Tat: 1.4

How did Cc1c(C(=O)O)sc2ncnc(Nc3ccc4c(c3)OCCO4)c12 do in these assays?
HIV TAR-Tat: 25*

How did Cc1cc2c(cc3n2CC(C)(C(=O)NC2CCCCC2)N(Cc2cccs2)C3=O)o1 (stereo not drawn) do in these assays?
HIV TAR-Tat: 4.2

How did Cc1cccc(C(=O)OCc2cc(=O)n3nc(CC(C)C)sc3n2)c1 do in these assays?
HIV TAR-Tat: -1.6

What do the screens show for `CC(C)CCNS(=O)(=O)c1ccc2c(c1)NC(=O)C(C)S2` (stereo not drawn)?
HIV TAR-Tat: 1.5

How did Cc1nc2ccc(S(=O)(=O)NC(CC(C)C)C(=O)N3CCC(C)CC3)cc2s1 (stereo not drawn) do in these assays?
CDC25B CDK2 inh: -0.6; HIV TAR-Tat: 1.9

What do the screens show for `O=c1c2cc3c(=O)n(Cc4cccs4)ccc3nc2ccn1Cc1cccs1`?
CDC25B CDK2 inh: 0.7; HIV TAR-Tat: -0.75

What do the screens show for `O=C(Cn1ncc2c1-c1ccccc1OC2)Nc1ccccn1`?
CDC25B CDK2 inh: -1.4

How did Cc1ccc(C)c(N=Cc2cc(Br)ccc2O)c1 do in these assays?
CDC25B CDK2 inh: -1.4

Results for Cc1nn(CC(=O)NCc2ccco2)c(=O)c2cccn12 ?
CDC25B CDK2 inh: -0.91; HIV TAR-Tat: 0.89

How did CCn1c(=O)/c(=C2\Sc3ccccc3N2C)s/c1=C\c1cccc[n+]1CC do in these assays?
HIV TAR-Tat: 0.39

How did COc1cc(Br)c(C2Nc3ccc(C(=O)O)cc3C3C4CCC(C4)C23)cc1OC (stereo not drawn) do in these assays?
CDC25B CDK2 inh: -0.06; HIV TAR-Tat: 1.8

Results for CN(C(=O)c1cc2c(s1)-c1ccccc1S(=O)(=O)C2)c1ccc(Br)cc1 ?
CDC25B CDK2 inh: -5.1; HIV TAR-Tat: 1.1

Results for O=C(CSC1=NS(=O)(=O)c2cc(F)ccc2N1)c1ccc(Cl)cc1 ?
HIV TAR-Tat: -0.23

How did CCOC(=O)c1c(C)n(-c2ccccc2)c2ccc(NS(=O)(=O)c3ccccc3)cc12 do in these assays?
CDC25B CDK2 inh: -0.45

Results for C[n+]1cn(CC(O)COc2cccc(Cl)c2)c2ccccc21 (stereo not drawn) ?
CDC25B CDK2 inh: -0.35; HIV TAR-Tat: 1

What do the screens show for `Cc1nc(CSc2ccc(Cl)cc2)cs1`?
CDC25B CDK2 inh: -0.97

Results for COc1cc(C(=O)NCC(=O)O)cc(OC)c1OC ?
CDC25B CDK2 inh: -0.34

Results for CNC(=O)c1c(NC(=O)c2cc(=O)c3ccc(C)cc3o2)sc2c1CCCC2 ?
CDC25B CDK2 inh: -2.2; HIV TAR-Tat: 2

Results for Cn1c(=O)cc(OCCCC(=O)NCCCN2CCCCCC2)c2ccccc21 ?
CDC25B CDK2 inh: -0.46

How did O=C(Cn1c(=S)[nH]c2ccccc2c1=O)N1CCOCC1 do in these assays?
CDC25B CDK2 inh: -0.88

How did COc1ccc(N2CCN(CCNS(=O)(=O)c3ccc4oc(=O)c5ncn(C)c5c4c3)CC2)cc1 do in these assays?
HIV TAR-Tat: 0.39

What do the screens show for `CC(C)OCCCNC(=O)c1c(N2CCCC2=O)c2cc(F)ccc2n1C`?
HIV TAR-Tat: 0.91

How did O=C(NCc1ccc(F)cc1)c1ccc2c(=O)n3c(nc2c1)CCCCC3 do in these assays?
CDC25B CDK2 inh: -2.2

What do the screens show for `CCC(C)S(=O)(=O)c1oc(-c2ccc(C)cc2)nc1S(=O)(=O)c1ccccc1` (stereo not drawn)?
HIV TAR-Tat: 0.85

How did CCOC(=O)CSc1n[nH]c2nc3sc4c(c3c(=O)n12)CC(C)(C)OC4 do in these assays?
CDC25B CDK2 inh: -0.66

Results for CC1C/C(=N\OC(=O)Nc2ccc(Cl)cc2)c2cc(Cl)ccc2S1(=O)=O (stereo not drawn) ?
CDC25B CDK2 inh: 1.1

How did Cc1[nH]nc(-n2cnnc2)c1NS(=O)(=O)c1ccc(C2CCCCC2)cc1 do in these assays?
CDC25B CDK2 inh: -0.53; HIV TAR-Tat: 0.68

What do the screens show for `Cc1ccc(C)c(C2Nc3ccccc3NC3=C2C(=O)CC(c2cccs2)C3)c1` (stereo not drawn)?
CDC25B CDK2 inh: -0.48; HIV TAR-Tat: 0.33

Results for COc1ccccc1NC1c2ncccc2C(=O)N1Cc1cccs1 (stereo not drawn) ?
CDC25B CDK2 inh: -0.51; HIV TAR-Tat: 1.4

How did CCc1ccc2occ(CC(=O)N(Cc3cccs3)C3CCS(=O)(=O)C3)c2c1 (stereo not drawn) do in these assays?
CDC25B CDK2 inh: -1.6; HIV TAR-Tat: -3.3

What do the screens show for `Cn1c(=O)sc2cc(NS(=O)(=O)c3cnc[nH]3)ccc21`?
HIV TAR-Tat: 0.57

Results for N#Cc1cccc(Nc2c3c(nc4ccccc24)CCCC3)c1 ?
CDC25B CDK2 inh: -0.47

Results for COc1ccc(NS(=O)(=O)c2c(C)[nH]c3ccccc3c2=O)cc1OC ?
CDC25B CDK2 inh: -2.5; HIV TAR-Tat: -0.02

Results for Cn1cc(S(=O)(=O)N2CCc3ccccc32)cc1C(=O)N1CCN(c2ncccn2)CC1 ?
CDC25B CDK2 inh: -0.49; HIV TAR-Tat: 0.86

Continued; the last 5 above are carried over.
How did CCc1ccc2occ(CC(=O)N(Cc3cccs3)C3CCS(=O)(=O)C3)c2c1 (stereo not drawn) do in these assays?
CDC25B CDK2 inh: -1.6; HIV TAR-Tat: -3.3

What do the screens show for `Cn1c(=O)sc2cc(NS(=O)(=O)c3cnc[nH]3)ccc21`?
HIV TAR-Tat: 0.57

Results for N#Cc1cccc(Nc2c3c(nc4ccccc24)CCCC3)c1 ?
CDC25B CDK2 inh: -0.47

Results for COc1ccc(NS(=O)(=O)c2c(C)[nH]c3ccccc3c2=O)cc1OC ?
CDC25B CDK2 inh: -2.5; HIV TAR-Tat: -0.02

Results for Cn1cc(S(=O)(=O)N2CCc3ccccc32)cc1C(=O)N1CCN(c2ncccn2)CC1 ?
CDC25B CDK2 inh: -0.49; HIV TAR-Tat: 0.86

How did S=C1C=C(N2CCCCC2)CC(c2ccccc2Cl)S1 (stereo not drawn) do in these assays?
CDC25B CDK2 inh: -1.2

Results for CCN(CC)c1ccc(C2c3c([nH][nH]c3=O)CC(C)(O)C2C(=O)OC)cc1 (stereo not drawn) ?
CDC25B CDK2 inh: -1; HIV TAR-Tat: 1.8

Results for O=C(NCc1nnnn1-c1ccccc1)Nc1ccc(F)cc1 ?
HIV TAR-Tat: 1.9

Results for Fc1ccc(-c2nnnn2-c2ccccc2C(F)(F)F)cc1 ?
CDC25B CDK2 inh: -0.69

Results for O=C(O)C1CCCN(c2nc3cccnc3s2)C1 (stereo not drawn) ?
CDC25B CDK2 inh: -0.6; HIV TAR-Tat: 1.8

How did CCn1nc(C)c(CCNS(=O)(=O)c2ccc(OC)c(OC)c2)c1C do in these assays?
HIV TAR-Tat: 1.3

What do the screens show for `COc1cc(C(=O)NC(C)c2ccc3c(c2)OCCO3)cc(OC)c1OC` (stereo not drawn)?
CDC25B CDK2 inh: -1.3

How did Fc1ccc(F)c(Nc2nc3ccccc3c3nncn23)c1 do in these assays?
HIV TAR-Tat: 1.2

What do the screens show for `Cc1nn(S(C)(=O)=O)c(C)c1S(=O)(=O)N1CCCC(C)C1` (stereo not drawn)?
HIV TAR-Tat: 0.22

How did O=C1C2ON(c3ccc(Cl)cc3)C(c3cccs3)C2C(=O)N1c1ccccc1 (stereo not drawn) do in these assays?
CDC25B CDK2 inh: 0.66

Results for Cc1cc(C)n(NC(=S)NCc2cccs2)c(=O)c1C#N ?
CDC25B CDK2 inh: -2.3

Results for COc1ccc(CN[C@H]2CS(=O)(=O)C[C@@H]2S(=O)(=O)c2ccc(C)cc2)cc1OC ?
CDC25B CDK2 inh: -1.8; HIV TAR-Tat: 0.49

How did O=C1C(=O)N(Cc2cccnc2)C(c2ccc(Br)cc2)/C1=C(\O)c1ccccc1 (stereo not drawn) do in these assays?
CDC25B CDK2 inh: -0.81; HIV TAR-Tat: 2.2

What do the screens show for `Cn1cnc(S(=O)(=O)N2CCN(c3ccccn3)CC2)c1`?
CDC25B CDK2 inh: -1.7; HIV TAR-Tat: 1.1

Results for COc1ccccc1-n1c(-c2ccncc2)n[nH]c1=S ?
CDC25B CDK2 inh: -0.88

Results for COc1ccc(C(=O)c2coc3ccc(O)cc23)cc1 ?
CDC25B CDK2 inh: 2; HIV TAR-Tat: 0.02

How did CCCc1[nH]nc2c1C(c1ccc(Cl)cc1)C(C#N)=C(N)O2 (stereo not drawn) do in these assays?
CDC25B CDK2 inh: -1.1; HIV TAR-Tat: -0.59

Results for O=C(NCc1cccs1)c1cnn2c3c(cnc12)CCCCC3 ?
HIV TAR-Tat: -0.78

A draw from above in order of count of non-hydrogen atoms, smallest number first.
Results for O=C(O)C1CCCN(c2nc3cccnc3s2)C1 (stereo not drawn) ?
CDC25B CDK2 inh: -0.6; HIV TAR-Tat: 1.8

What do the screens show for `Cn1cnc(S(=O)(=O)N2CCN(c3ccccn3)CC2)c1`?
CDC25B CDK2 inh: -1.7; HIV TAR-Tat: 1.1

Results for Fc1ccc(-c2nnnn2-c2ccccc2C(F)(F)F)cc1 ?
CDC25B CDK2 inh: -0.69

Results for O=C(NCc1nnnn1-c1ccccc1)Nc1ccc(F)cc1 ?
HIV TAR-Tat: 1.9

How did CCn1nc(C)c(CCNS(=O)(=O)c2ccc(OC)c(OC)c2)c1C do in these assays?
HIV TAR-Tat: 1.3

Results for COc1ccc(CN[C@H]2CS(=O)(=O)C[C@@H]2S(=O)(=O)c2ccc(C)cc2)cc1OC ?
CDC25B CDK2 inh: -1.8; HIV TAR-Tat: 0.49
